High-throughput results from PubChem BioAssay.
BJeLR viability = kills HRASV12-expressing BJeLR cells. AID 1554. inhibition, % (no concentration beside the values). hit rate 0.17% among 300,000. BJeLR (HRASV12) viability, CellTiter-Glo ATP luminescence, 48 h; reference of the scale not given here;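 active = replicate mean above 50%; inconclusive = above 50% but judged a plate artefact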;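 also: 50 nL library stock added to about 25 µL; numbers are from one replicate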
RN4220 kill = kills Staphylococcus aureus RN4220 | S. aureus RN4220 growth, OD600, 16 h | inhibition, % (concentration not given with the values) | hit rate 0.33% among 330,000 | AID 1259311;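 active = z-score of -3 or lower and OD600 up to 0.18 on both plates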;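 also: plate controls were untreated cells for no effect and reference antibiotic for full effect; stock transfer was 100 nL into about 80 µL; one replicate is shown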
PrP UTR inh = suppresses PrP 5' UTR mRNA reporter expression; cell-based PrP 5' UTR mRNA reporter, plate reader; inhibition, % (test concentration not listed); hit rate 0.35% among 340,000;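 active = every replicate at 50% or more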;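 also: 0 = median of the neutral control wells; tested in H4 reporter cells; numbers are from one replicate; inactives centre near -14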
Bead autofluor = flagged as autofluorescent in microsphere protease counterscreen; AID 624483; compound autofluorescence counterscreen, microsphere flow cytometry; hits give high values; hit rate 3.1% among 360,000; fluorescence intensity (no concentration beside the values);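 active = at least 3 SD above the mean of all compounds, about 16000 in these data; inconclusive = too few beads counted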;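 also: 100 nL of 1 mM stock went into each well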
ugtP null kill = kills S. aureus RN4220 lacking UgtP | growth inhibition, % (no concentration beside the values) | hit rate 0.54% among 330,000 | AID 1259309 | S. aureus RN4220 ugtP deletion, OD600 growth, 16 h; some inactives read as strong as hits;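 active = z-score under -3 and OD600 up to 0.15 on both plates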;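 also: plate controls were untreated wells for no effect and antibiotic for full effect; wells of about 80 µL received 100 nL stock; the first replicate is given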
Mtb hypoxia rep = inhibitors of hypoxia-regulated fluorescent reporter in Mycobacterium tuberculosis. fluorescence inhibition, % (concentration not given with the values). M. tuberculosis hypoxia-regulated fluorescent reporter, fluorescence. hit rate 0.1% among 300,000;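 active = 35 to 45% if threefold the growth effect, above 45% if 1.5-fold the growth effect; inactive = the rest, general growth blockers included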;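 also: wells of about 50 µL received 100 nL stock; 0% = vehicle wells and 100% = reference inhibitor wells; whole bacteria with a GFP reporter of the hypoxia response; strong numbers were not always called active; many hits fall short of the cut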
Mtb hypoxia rep growth = second read-out of Mtb hypoxia rep, no call of its own (marks repeat the call); growth inhibition, %; measured here: M. tuberculosis growth (absorbance);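 0% = vehicle and 100% = reference antibiotic; read after six days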
Numbers without * were called inactive; ? = inconclusive; . = not tested or not shown.

The first 2 records, ahead of the listing:
SMILES	BJeLR viability	RN4220 kill	PrP UTR inh	Bead autofluor	ugtP null kill	Mtb hypoxia rep	Mtb hypoxia rep growth
CCCCN(CCCNC(=O)C1CCN(S(=O)(=O)N2CCOCC2)CC1)c1ccccc1	0	7.9	-9	3018	-6	0	0
COc1ccc2cc(C(=O)/C=C/c3cc(OC)c(OC)c(OC)c3)ccc2c1	-2	-0.6	-12	3652	-1	0	4

The list itself (from the top)
SMILES	BJeLR viability	RN4220 kill	PrP UTR inh	Bead autofluor	ugtP null kill	Mtb hypoxia rep	Mtb hypoxia rep growth
CCCCN(CCCNC(=O)C1CCN(S(=O)(=O)N2CCOCC2)CC1)c1ccccc1	0	7.9	-9	3018	-6	0	0
COc1ccc2cc(C(=O)/C=C/c3cc(OC)c(OC)c(OC)c3)ccc2c1	-2	-0.6	-12	3652	-1	0	4
COc1cc(-c2ccccc2)nc(N)n1	-1	2.1	-32	10727	-1	-3	5
CCOc1ccc2nc(NC(=O)CN3CCOCC3)sc2c1	-5	-1.2	-21	3248	-5	-2	7
CC1CN(C(=O)CCn2c(=O)oc3ccccc32)CC(C)O1 (stereo not drawn)	0	1.0	-9	6722	2	-2	-7
CCN(CCCNC(=O)C1CCN(S(=O)(=O)N2CCOCC2)CC1)c1cccc(C)c1	0	5.5	-21	2800	0	8	1
FC(F)(F)c1cc(-c2ccco2)nc(NCc2cccs2)n1	5	7.1	-31	8835	-18	8	22
CCOc1ccc(CN2CCCC(CNC(=O)c3ccc(F)cc3)C2)cc1CO (stereo not drawn)	4	3.6	-19	2965	0	14	0
Cn1c(C(=O)NCc2cccnc2)cc2sccc21	-2	1.5	-25	11093	0	2	6
COc1ccc(Cl)cc1NC(=O)CNC(c1ccccc1)c1ccccc1	-4	-6.2	-5	3142	17	6	0
O=C(NC1(C(F)(F)F)N=C2SCCN2C1=O)c1ccco1 (stereo not drawn)	-4	-3.6	-1	4781	7	10	10
Cc1cccc(NC(=O)CCN2C(=O)c3ccccc3C2=O)n1	6	5.4	-23	6287	2	-10	6
Cn1ncc(Cl)c1C(=O)N1CCOCC1	14	2.4	-19	2501	5	1	5
COCCOc1cc(NC(=O)c2cccc(OC)c2)c(Cl)cc1Cl	-5	3.8	-28	4804	1	1	-13
CC(=O)N1C(=O)/C(=C2\SC(=S)N(NS(=O)(=O)c3ccc(C)cc3)C2=O)c2ccccc21	.	5.8	-13	2578	-3	2	-2
CCc1nnc(NS(=O)(=O)c2ccc(NC(=O)COc3ccc(Cl)c(C)c3)cc2)s1	4	-0.8	-51	3941	3	5	14
CC(c1ccco1)N(C(=O)Nc1ccccc1)C1CCCCC1 (stereo not drawn)	0	3.1	-44	20524*	10	1	4
Cc1cc(NC(=O)CN2CCN(Cc3ccccc3)CC2)nc2c1c(=O)oc1ccccc12	-2	1.8	.	.	12	2	13
CCC(=O)Nc1ccc(C(=O)NNC(=O)COc2cccc(C)c2)cc1	9	0.0	-4	2315	-1	-1	5
COCCCNC(=O)c1ccccc1Oc1ccccc1	6	1.2	-21	4149	-2	.	.
CN(C)c1ccc(C(C(=O)NCC2CCCO2)N(Cc2ccco2)C(=O)c2snc(C(N)=O)c2N)cc1 (stereo not drawn)	0	.	-22	3941	.	.	.
COc1cc(OC)c(OC)cc1CN1CCN(Cc2ccc(C(F)(F)F)cc2)CC1	4	-0.3	-10	3186	6	2	-6
CCc1ccc(C(=O)C(C)OC(=O)CNS(=O)(=O)c2ccc(C)cc2)cc1 (stereo not drawn)	3	0.9	-26	4653	5	5	0
COc1ccc(-c2cn3ccc(C)cc3n2)cc1	18	3.6	14	3721	-1	-2	4
COc1ccc(OCC#CCNC(C)(C)C)cc1	0	-1.0	-4	3271	5	.	.
CCOC(=O)c1cc(C(=O)OCC)cc(-n2cc(O)c(C(=O)OCC)n2)c1	4	0.4	.	10768	-16	-4	6
CC(C)CNC(=S)NC1CC2CCC(C1)N2Cc1ccccc1 (stereo not drawn)	9	3.4	-23	8005	3	-2	-8
S=c1[nH]nc(-c2cccnc2)n1N=Cc1ccco1	.	9.9	.	.	3	6	4
CC(=O)C1C(c2ccc(F)cc2)c2c(noc2C)CC1(C)O (stereo not drawn)	8	0.9	-8	4546	1	4	7
O=C(C1CCCO1)N1CCN(S(=O)(=O)c2ccc(Br)cc2)CC1 (stereo not drawn)	2	3.0	-12	4470	3	1	-3
CCN(CCO)C(=O)c1ccc2oc(Cc3ccc(Cl)cc3)nc2c1	7	0.5	-15	3237	8	1	-2
Cc1ccc(-c2nn(CC(=O)NCc3cc(-c4nn(C)c(=O)c5ccccc45)ccc3C)c(=O)c3ccccc23)cc1	125*	0.6	-5	3797	-6	.	.
CN(C)/C=C/C(=O)c1cnc(-c2ccc(Cl)cc2)s1	-1	10	-68	4792	14	9	6
COc1ccc(Cl)cc1NC(=O)CN(C(=O)c1ccco1)C1CCCCC1	0	-1.7	-20	11030	-5	6	-6
N#CCc1ccc(NC(=O)Cn2c(=O)oc3ccccc32)cc1	-14	1.6	-2	.	5	11	4
N#Cc1cc(-c2ccccc2)nnc1Sc1ccccc1	7	4.6	1	2861	-2	.	.
Cc1ccccc1CSCC(=O)NNC(=S)NCC1CCCO1 (stereo not drawn)	6	2.7	-24	5584	8	11	-4
O=C(NCc1ccccc1F)C(c1ccccc1)c1ccccc1	3	-3.7	-21	3940	11	5	9
COC(=O)CN1C(=O)C2(C(C#N)=C(N)Oc3cc(C)oc(=O)c32)c2ccccc21 (stereo not drawn)	1	0.0	-4	2425	0	.	.
CC(CNC(=O)CCS(=O)(=O)c1cc2c(cc1Cl)NC(=O)CO2)c1ccccc1 (stereo not drawn)	-13	2.0	-4	5921	-13	.	.
Clc1nc2c(ccc3ccccc32)[nH]1	0	2.4	-56	.	2	7	10
CC(OC(=O)CC1Sc2ccccc2NC1=O)C(=O)N(C)Cc1ccccc1 (stereo not drawn)	.	1.8	-25	?	4	-14	-3
Cc1nc2c(c(N3CCOCC3)n1)OCC(=O)N2	7	9.2	-5	2880	7	-7	0
CN(C(=O)c1nn(C)c2c1CSc1ccccc1-2)c1ccc(F)cc1	-8	6.4	-12	4354	-6	-4	-2
O=C(Nc1ccc2c(c1)OCO2)c1ccccc1SCC(=O)N1CCCC1	-1	1.2	-12	9065	-6	8	12
Cc1cccc(N=Nc2c(O)[nH]c3ccc(F)cc23)c1	6	.	-56	4706	.	.	.
C/C(=N/NC(=O)CSc1nc2ccccc2s1)c1ccncc1	0	.	-13	4308	.	.	.
O=C(Nc1ccc(N2CCN(C(=O)c3ccco3)CC2)c(Cl)c1)c1cc2ccccc2o1	13	.	0	3262	.	.	.

Single values from above:
Cc1cccc(N=Nc2c(O)[nH]c3ccc(F)cc23)c1 in PrP UTR inh has -56
CC(OC(=O)CC1Sc2ccccc2NC1=O)C(=O)N(C)Cc1ccccc1 (stereo not drawn) in RN4220 kill has 1.8
COC(=O)CN1C(=O)C2(C(C#N)=C(N)Oc3cc(C)oc(=O)c32)c2ccccc21 (stereo not drawn) in ugtP null kill has 0

Later entries.
SMILES	BJeLR viability	RN4220 kill	PrP UTR inh	Bead autofluor	ugtP null kill	Mtb hypoxia rep	Mtb hypoxia rep growth
CCN(CC(=O)Nc1ccc(NC(C)=O)cc1)C(=O)c1ccc2ccccc2c1	0	5.0	-9	5112	11	-2	-9
O=C(O)CCCN1C(=O)/C(=C\c2ccccc2OCc2ccccc2)SC1=S	-9	27	-14	3844	16	-1	-3
NNC(=O)CNC(=O)C12CC3CC(CC(C3)C1)C2	1	2.4	-4	4116	14	-6	5
O=C(CN1CCN(S(=O)(=O)c2cc(C(F)(F)F)ccc2Cl)CC1)N1CCc2ccccc2C1	.	2.6	7	4161	-14	-2	-3
CCS(=O)(=O)N1Cc2ccccc2CC1C(=O)N1CCN(c2cccc(C)c2C)CC1 (stereo not drawn)	0	3.7	-14	23317*	-7	7	8
NC(=O)CSc1ccc(-c2ccc(F)cc2)nn1	2	1.6	-4	4559	4	9	-3
COc1cccc(C(=O)COC(=O)CCC(=O)NC2CCCCC2)c1	-2	-1.3	-24	2261	7	0	3
Cc1nc2ccccc2c(=O)n1-c1ccccc1[N+](=O)[O-]	-2	0.4	-17	2630	10	-1	7
O=C(O)C1CC=C(Cl)CC1C(=O)NC1CCCCC1 (stereo not drawn)	10	-2.5	-3	4613	5	0	6
O=C(O)Cc1sc(Nc2ccccc2)nc1-c1cccs1	-5	.	-36	6002	.	.	.
Cc1ccc(S[C@@H](CCN2CC[C@H](O)CCC2=O)c2ccccc2)cc1	6	-8.5	-19	2907	5	14	6
CCN1CN(Cc2ccco2)CNC1=S	6	4.0	5	2087	1	3	0
O=C(CCn1cccc1)Nc1ccc(OC(F)(F)F)cc1	1	1.3	-32	4499	3	4	9
COc1cccc(CNC(=O)CCC2CCCN(C(=O)c3cc(C)on3)C2)c1 (stereo not drawn)	5	4.6	-29	4082	-1	3	-1
CCN1/C(=C/C(=O)c2ccco2)Sc2ccccc21	-5	.	-38	3240	.	.	.
CC1O[C@@H](O[C@H](C)CC[C@@H](C)O[C@H]2OC(C)[C@@H](O)C[C@H]2O)C(O)C[C@H]1O (stereo partly drawn)	-1	.	-18	4059	.	.	.
COC(=O)C1=C(C(=O)OC)SC2(S1)C(C(=O)OC)=C(C(=O)OC)SC1=C2c2cccc(C)c2NC1(C)C	1	-6.8	1	5581	2	0	-1
CN(Cc1ccon1)C(=O)CC1C(=O)NCCN1CC1CCCCC1 (stereo not drawn)	6	-2.5	-19	2145	11	-1	11
CCCCNC(=O)CSc1nc2cc3c(cc2c(=O)n1CCCN(CC)CC)OCO3	-2	0.5	1	5667	2	6	21
Cc1ccccc1OCC(=O)NNC(=O)Cc1ccc(S(=O)(=O)N2CCOCC2)s1	2	4.6	-6	6605	2	10	7
CCOc1cccc(C=NNC(=O)c2cc(-c3cccn3C)n[nH]2)c1O	.	6.3	.	.	2	4	5
O=C(CSc1ncnc2sccc12)NC1CCS(=O)(=O)C1 (stereo not drawn)	.	2.2	-11	2955	8	8	4
CCCC1S/C(=N/N=C/c2ccco2)NC1=O (stereo not drawn)	-4	.	-11	2562	.	.	.
O=C1c2ccccc2C(=O)N1CCCC(=O)N1CCCc2ccccc21	-3	2.2	-60	3696	1	3	4
O=C(NCc1ccc(Cl)cc1)c1cccc(S(=O)(=O)N2CCCC2)c1	.	0.0	-18	3622	5	7	-2
CCOC(=O)c1cc(=O)c2ccc(OCc3ccccc3)cc2o1	-3	5.7	-17	3411	15	12	12
O=C(CCC(=O)c1cccs1)OCC(=O)c1ccc(F)cc1	.	4.0	-13	3360	7	17	10
COc1cc(/C=C/C(=O)Nc2nc3ccc(S(=O)(=O)NC(C)C)cc3s2)cc(OC)c1OC	-20	2.7	-12	2155	3	7	5
COc1cccc(NC(=O)c2nnn(Cc3ccc(Br)cc3F)c2N)c1	4	1.8	-37	5572	9	.	.
CC(C)CNc1oc(-c2ccco2)nc1C#N	-6	-3.4	-23	9471	6	1	-9
COc1ccccc1C1C(C(C)=O)=C(C)N=c2s/c(=C\c3cc(OC)c(OC)c(OC)c3)c(=O)n21 (stereo not drawn)	-9	.	-7	7827	.	.	.
CCCN(CCC)CCNC(=O)c1cc2c(C)nc3ccccc3c2o1	-2	5.1	-4	23678*	5	5	8
CCc1noc(C)c1C(=O)Nc1cc(Cl)ccc1N1CCCC1	5	4.9	-21	5138	-3	0	2
Cc1ccc2cn[nH]c2c1[N+](=O)[O-]	2	-0.6	-11	2420	5	6	-5
COCCNc1nc(-c2ccccc2)nc2c1oc1ccccc12	-12	17	-10	4270	1	-11	2
Cn1c(CSc2nnc(SCc3ccccc3)s2)nc2ccccc21	-5	2.0	-28	8680	3	-3	5
COc1ccc(-c2nc3ccc(N4CCCC4)cc3c(=O)[nH]2)cc1OC	0	-2.1	-11	3570	-2	-107	-39
CCn1cc(C(=O)OCC(=O)Nc2ccc(S(=O)(=O)N3CCCC3)cc2)c(=O)c2ccc(C)nc21	7	0.3	7	4106	-13	3	6
COc1cc(C)c(S(=O)(=O)NCc2ccc3c(c2)OCO3)cc1C	1	-4.2	-18	5542	-6	0	1
Cc1ccc(CSCCNC(=O)c2cccc([N+](=O)[O-])c2)cc1	-30	3.3	-22	2025	-6	7	1
Nc1nc(SCc2ccc(Br)cc2)n[nH]1	6	0.5	-22	3364	3	-7	-5
CCN(CC)c1ccc(N=C2C=CC(=O)C=C2NC(C)=O)cc1	.	2.0	.	3544	-1	-8	2
